Six1-Eya2 inh: inhibitors of human Six1/Eya2 interaction; activity change, % (no concentration beside the values); AlphaScreen GST-Six1/His-Eya2 binding, biochemical; hits give low values; control for the full effect not named in the record; 360,000 compounds, 0.56% hits; in the data active = activity change below about -65%; inconclusive = about -30% to -65%; inactive = above about -30%; also: % is scaled to controls: 0 for no effect and ±100 for the full control effect
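AlphaScreen luminescence read after one hour at 37 °C in darkness. Pin-transferred compounds met GST-Six1 and His-Eya2 protein (5X stock 250 nM/500 nM) plus glutathione donor and Ni-chelate acceptor beads (5X, 50 ug/mL).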
D2 agonist: agonists of human D2 dopamine receptor (beta-arrestin). P14416. DiscoveRx PathHunter D2 beta-arrestin, luminescence, 90 min; 100% = 57 uM dopamine signal. activation, % (concentration not given with the values). 360,000 compounds, 0.084% hits. AID 624465; in the data active = activation above about 40%; inconclusive = about 15% to 40%; inactive = below about 15%; also: the text of the record calls up to 30% inactive
Target sequence (P14416 whole entry, looked up): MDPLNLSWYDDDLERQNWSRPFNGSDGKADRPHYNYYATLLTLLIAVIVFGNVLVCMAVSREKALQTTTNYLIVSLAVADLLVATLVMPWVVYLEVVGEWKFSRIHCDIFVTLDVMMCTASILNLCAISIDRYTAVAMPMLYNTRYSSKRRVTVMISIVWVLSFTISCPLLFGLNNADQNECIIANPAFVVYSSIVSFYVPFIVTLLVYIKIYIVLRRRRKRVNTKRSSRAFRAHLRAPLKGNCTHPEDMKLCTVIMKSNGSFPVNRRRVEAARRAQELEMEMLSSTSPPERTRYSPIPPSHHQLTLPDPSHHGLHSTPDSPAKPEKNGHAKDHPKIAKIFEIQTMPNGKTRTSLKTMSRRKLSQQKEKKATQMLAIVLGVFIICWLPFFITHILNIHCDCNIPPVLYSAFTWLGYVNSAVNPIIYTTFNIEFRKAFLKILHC
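Agonist mode: compounds alone added to overnight-plated D2 PathHunter cells for 90 min at 37 C, with 57 uM final dopamine (EC100) defining full response. Beta-arrestin recruitment detected by chemiluminescent reagent, read after 1 h at ambient temperature.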
TRPML1 ag: activates the human TRPML1 channel | Q9GZU1 | 410,000 compounds, 0.12% hits | TRPML1-expressing cells, Ca2+ dye fluorescence, FDSS; host cell line not named in the record; reference of the full effect not given here | activation, % (no concentration beside the values); in the data active = activation above about 50%; inconclusive = about 30% to 50%; inactive = below about 30%; also: 0% is about no effect; the text of the record puts the active cut at 80%
Target sequence (Q9GZU1 whole entry, looked up): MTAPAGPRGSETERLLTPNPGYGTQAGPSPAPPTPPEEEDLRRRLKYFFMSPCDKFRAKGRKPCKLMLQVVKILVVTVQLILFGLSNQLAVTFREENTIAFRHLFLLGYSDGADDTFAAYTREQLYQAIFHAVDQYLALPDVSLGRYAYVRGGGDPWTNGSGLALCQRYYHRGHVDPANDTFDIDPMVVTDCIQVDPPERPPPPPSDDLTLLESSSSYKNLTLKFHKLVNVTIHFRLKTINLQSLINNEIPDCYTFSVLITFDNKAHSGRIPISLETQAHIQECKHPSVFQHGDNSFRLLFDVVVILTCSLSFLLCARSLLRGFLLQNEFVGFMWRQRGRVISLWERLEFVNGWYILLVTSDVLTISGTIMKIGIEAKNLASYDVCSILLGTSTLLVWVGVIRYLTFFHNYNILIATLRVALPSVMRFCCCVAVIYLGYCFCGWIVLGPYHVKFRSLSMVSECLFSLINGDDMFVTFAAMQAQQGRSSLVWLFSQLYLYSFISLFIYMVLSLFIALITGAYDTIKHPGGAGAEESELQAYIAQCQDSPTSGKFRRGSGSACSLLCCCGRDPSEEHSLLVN
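In this qHTS format, compounds were pin-transferred onto Ca8-dye-loaded TRPML1-DL cells induced with Tet overnight, and intracellular Ca2+ fluorescence was recorded kinetically for 110 s after a 10 s baseline. A subsequent 4uM final 54-4 (EC80) addition followed by a second 110 s read served as the antagonist phase.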
D2 potentiator: potentiates the human D2 dopamine receptor allosterically | potentiation, % (concentration not given with the values) | 360,000 compounds, 0.23% hits | P14416 | DiscoveRx D2 beta-arrestin cells, luminescence, 90 min; 100% = 57 uM dopamine signal; active = potentiation of 50% or more; inconclusive = 30% to 50%; inactive = 30% or less;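 also: tested on top of an EC20 dose of dopamine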
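PathHunter beta-arrestin assay in DiscoveRx D2 cells. Compounds were added with an EC20 of dopamine (50 nM final) for 90 min at 37 deg C. Luminescence was read 1 h after detection reagent, with 57 uM dopamine as the EC100 control.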
CtBP-E1A inh: CtBP/E1A binding inhibition; AlphaScreen GST-E1A/His-CtBP binding, 1536-well; hits give low values; control for the full effect not named in the record; activity change, % (no concentration beside the values); 340,000 compounds, 0.49% hits; AID 651724; in the data active means activity change below about -65%; inconclusive means about -30% to -65%; inactive means above about -30%; also: % is scaled to controls: 0 for no effect and ±100 for the full control effect
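GST-E1A and His-tagged CtBP (125 nM each as 5X stock) were preincubated with pin-transferred compound for 2 h at 37 °C in the dark, then glutathione donor and nickel acceptor beads were added for 1 h before AlphaScreen reading.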
PINK1 modulator: modulators of PINK1 expression. PINK1 immunofluorescence, high-content cytometry, 24 h. Potency, µM (highest dose often 76.6 µM), inactives show top-dose activation (PINK1 increase), actives largely listed as activators. 410,000 compounds, 0.2% hits; active = well fitted activation curve with a large enough effect; inconclusive = small, poorly fitted or top-dose-only effect; inactive = flat fitted curve, though single readings scatter; cell line not stated here;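 also: potency is read from the fitted curve at half-maximal effect; % of control where 0% means no effect; nearly all actives have a fitted effect of over 65% in size; a mitochondrial uncoupler was the plate control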
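Measures PINK1 amount and localization on or inside mitochondria by immunofluorescence. Stable cells get compounds at 5 concentrations for 24 hours before fixation and staining; CCCP controls included.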
An asterisk follows results filed as active; ? = inconclusive; · = no result given; & = joins results of further samples; [ ] = dose if it differs, or a comment.

SMILES	Six1-Eya2 inh	D2 agonist	TRPML1 ag	D2 potentiator	CtBP-E1A inh	PINK1 modulator
O=C(CNS(=O)(=O)c1ccccc1)NCC(=O)OCc1ccc(Br)cc1	0	-2.5	1.2	-10	·	0.0%
O=C(Cc1ccc([N+](=O)[O-])cc1)Nc1ccc(Br)cn1	-9	1.3	-0.7	-6	8	4.3%
COc1ccc2nc(SCC(=O)Nc3cc(C)on3)[nH]c2c1	-2	-1.1	3.0	4	-6	3.6%[38.3 µM]
Cc1noc(/C=C/N(C)C)c1S(=O)(=O)NC1CCCCC1	7	-2.2	0.4	-11	6	4.0%
CN(C)c1nc(-c2ccccc2)nnc1C(F)(F)F	-5	-0.9	0.1	-3	6	-0.3%
OC(CN=c1sc2ccccc2n1CC(O)COc1ccccc1)COc1ccccc1 (configuration not stated)	-1	-0.9	1.3	-20	3	17%
CNS(=O)(=O)c1cccc(C(=O)OCC(=O)NC2CCCC2)c1	6	11	3.1	0	8	-1.5%
O=C(/C=C/c1ccco1)OCc1nnc(-c2ccccc2)o1	0	-4.1	1.3	-4	2	-0.3%
NC(=O)C1CCN(C2CC(=O)NC2=O)CC1 (configuration not stated)	-3	3.1	-0.1	-3	12	-1.3%
CCOC(=O)c1csc(NC(=O)c2cccs2)n1	0	2.4	1.3	-2	·	2.3%
Cc1c(C(=O)N2CCCCC2)c(S(=O)(=O)NCc2ccc(Cl)cc2)c(C)n1C	0	-3.0	-0.6	-1	1	-0.7%
O=C(COC(=O)/C=C/c1ccc(Br)o1)NCCCN1CCCC1=O	5	-3.3	0.6	-1	5	1.5%
O=[N+]([O-])c1ccc(N2CCN(c3ccccc3)CC2)cc1	0	1.0	-0.7	1	10	0.2%
COc1ccc(CCNC(=O)CCN2C(=O)COc3ccccc32)cc1OC	3	-0.7	0.1	9	-6	·
CCCCc1nnc(SCC(=O)NC2CCCCC2)n1C	3	-7.6	0.5	-17	3	0.3%
Cc1cc(NC(=O)CN2CCN(c3cccc(Cl)c3)CC2)no1	-23	-0.2	0.4	-12	14	0.6%
O=C(c1ccc(N2CCOCC2)c([N+](=O)[O-])c1)N1CCCC(C(F)(F)F)C1 (configuration not stated)	8	-3.6	0.5	-18	-1	-1.9%
CC(=O)Nc1sc2c(c1C(c1ccccc1)N1CCOCC1)CCCC2 (configuration not stated)	2	-1.8	-0.2	-10	8	6.2%
COC(=O)CNC(=O)c1ccc(C)s1	2	0.7	-0.4	-2	0	-0.3%
CC(=O)c1c(C)[nH]c(C(=O)OCC(=O)N2CC(C)OC(C)C2)c1C (configuration not stated)	4	-3.5	0.3	2	16	0.1%
CN(CC(=O)Nc1ccccc1C(F)(F)F)C(=O)c1cc(Cl)nc2ccccc12	8	7.2	-0.4	-15	6	1.1%
O=C(c1ccc(N2CCCC2=O)cc1)N1CCN(c2ccccc2Cl)CC1	-3	4.5	1.6	2	-1	1.4%
O=C(c1cccc(N2CCCC2=O)c1)N1CCOCC1	6	-2.6	0.3	2	3	-1.1%
CN(C)c1cc(-c2ccc([N+](=O)[O-])cc2)oc(=O)c1Cl	-13	-3.1	-0.7	5	-17	1.1%
CCO[C@@H]1OC(C(=O)O)=C[C@H](c2coc3ccccc3c2=O)[C@H]1CCCO	6	-1.5	-0.4	-7	3	0.9%
(cont.)
SMILES	Six1-Eya2 inh	D2 agonist	TRPML1 ag	D2 potentiator	CtBP-E1A inh	PINK1 modulator
CCOC(CNC(=O)c1ccc2c(c1)ncn2-c1ccccc1OC)OCC	-6	-0.5	-0.2	1	11	0.1%
COc1ccc(C(=O)OCc2cc(=O)n3ccsc3n2)cc1F	2	-0.6	-0.1	0	6	1.8%
Cc1c(C(=O)OC(C)C)nnn1-c1nonc1N	3	-1.9	-0.6	-6	2	0.9%
COc1ccc2[nH]c3nc(SCC(=O)NC4CC4)nnc3c2c1	-28	-2.9	-0.5	-3	-5	13%
O=C(NCc1ccccc1)c1ccc(Br)cc1Br	5	2.3	-0.3	-5	25	3.0%
Cc1cccc(C)c1NC(=O)C(Cl)=C(Cl)Cl	5	0.5	2.2	-7	9	-1.3%
C[C@H](CCC(=O)O)[C@H]1CC[C@H]2[C@@H]3CC[C@@H]4C[C@H](O)CC[C@]4(C)[C@H]3C[C@H](O)[C@]12C	4&0&-1	-1.6&-0.4&-3.9	0.2&0.3	3&4&-29	-4&-5&4	0.0%&0.4%&0.6%
CSc1ccc(S(=O)(=O)NCC(=O)OCC(=O)N2CC(C)CC(C)C2)cc1[N+](=O)[O-] (configuration not stated)	-6	-4.1	-0.9	11	-23	1.6%
NC(=O)CN1C(=O)C2C3c4ccccc4C(c4ccccc43)C2C1=O (configuration not stated)	0	-0.9	-0.7	29	3	-1.4%
COc1cc(OC)cc(C(=O)Nc2ccc(NC(=O)c3ccco3)c(C)c2)c1	-1	?	0.5	-1	-3	0.3%
O=C(Nc1ccc(N2CCOCC2)cc1)c1ccc([N+](=O)[O-])o1	-5	9.9	1.1	1	-1	1.2%
CC(=O)c1ccc(NC(=S)N(CCCN(C)C)Cc2ccccc2)cc1	-10	1.0	0.1	-12	-1	0.0%
COc1ccc(C(=O)OCc2nc(N)nc(Nc3ccccc3C)n2)cc1OC	-5	-0.4	0.1	0	-15	6.1%
CCCS(=O)(=O)c1nc(S(=O)(=O)c2ccc(C)cc2)c(N2CCOCC2)s1	3	-6.2	0.0	-8	2	-0.8%
CC1CC(C)CN(CCCNC(=O)c2ccc(CS(=O)(=O)Cc3cccc(Cl)c3)o2)C1 (configuration not stated)	-1	2.5	0.0	-11	·	0.6%
O=C(CN1CCN(Cc2ccccc2)CC1)Nc1nnc(C(F)(F)F)s1	-3	-5.7	-0.3	0	6	3.6%
CCOc1ccc(S(=O)(=O)N(CC)CC(=O)N2CCOCC2)cc1C	-10	-1.1	0.1	-4	2	-1.8%
CCn1c(SCC(=O)OC)nc2cc(S(=O)(=O)N3CCOCC3)ccc21	0	1.4	0.6	-7	4	-3.2%
O=C(Nc1nc(-c2ccc3c(c2)OCO3)cs1)C1CC1	-21	-1.0	-0.3	-2	-10	1.5%
C/C(Cc1ccccc1)=N\NC(=O)CNC(=O)c1ccccc1O	2	-3.4	0.0	-7	0	0.2%
COc1ccc2c(c1)OC[C@H]1[C@H]2N2C(=O)CN(Cc3ccc(F)cc3)C(=O)[C@@]2(C)[C@H]1c1ccccc1	-13	-0.1	-0.3	-7	·	2.5%
CN(C(=O)COC(=O)/C=C/c1cn(-c2ccccc2)nc1-c1ccc2c(c1)OCCO2)C1CCS(=O)(=O)C1 (configuration not stated)	-4	-3.8	0.8	-3	3	2.6%
Cc1cnc(C(=O)OC(C)C(=O)Nc2ccc(Cl)cn2)cn1 (configuration not stated)	-8	-2.8	0.5	-1	-2	-1.4%
O=C(OCC(=O)c1c[nH]c2ccccc12)c1cncc(Br)c1	0	2.0	3.8	-1	-7	0.7%
Cc1c(-c2ccn[nH]2)cc(NC(=O)c2ccc(Cl)cc2)c(=O)n1N	3	1.9	0.0	-5	·	1.4%

Single values from above:
TRPML1 ag with `O=C(NCc1ccccc1)c1ccc(Br)cc1Br` stands at -0.3
CtBP-E1A inh with `COc1ccc(C(=O)OCc2cc(=O)n3ccsc3n2)cc1F` stands at 6
CtBP-E1A inh with `NC(=O)CN1C(=O)C2C3c4ccccc4C(c4ccccc43)C2C1=O` (configuration not stated) stands at 3

Next records follow:
SMILES	Six1-Eya2 inh	D2 agonist	TRPML1 ag	D2 potentiator	CtBP-E1A inh	PINK1 modulator
COc1cc2[nH]c(C(=O)N3CCC(Cc4ccccc4)CC3)cc2c(OC)c1OC	-15	3.3	2.3	-17	-4	7.0%
CCOc1ccc(C(=O)Nc2cccc(C(C)=O)c2)cc1[N+](=O)[O-]	-4	0.4	0.9	-3	0	-2.0%
CCCC(=O)OC1CCS(=O)(=O)c2sccc21 (configuration not stated)	1	-1.0	-0.1	8	3	2.3%
CCOC(=O)C1CCN(S(=O)(=O)c2ccc(-c3nc4ccccc4s3)s2)CC1	7	-1.1	0.2	-4	7	?
CN(C)C1(CN=Cc2cc(Cl)cc([N+](=O)[O-])c2O)CCCCC1	-3	-7.8	0.4	-6	-2	3.3%
Cn1c(=O)c(Cc2ccccc2)c(O)c2ccccc21	3	-5.0	0.4	-14	0	0.0%[38.3 µM]
COCCCNC(=O)c1c(N)n(/N=C/c2ccccn2)c2nc3ccccc3nc12	-20	-6.1	0.8	0	-3	2.0%
CC(C)N(Cc1ccccc1)C(=O)COC(=O)C1CCN(c2ccc(C(F)(F)F)cn2)CC1	0	-4.7	0.9	-6	12	7.0%
O=C(COC(=O)c1ccc(CO)cc1)NCc1cccs1	2	-1.7	0.1	-18	-14	0.0%
Nc1ccc2nc(N)sc2c1	4	14	1.6	3	0	-1.2%
COc1cccc(CN(C(=O)c2cc3ccccc3oc2=O)C2CCS(=O)(=O)C2)c1 (configuration not stated)	-1	-3.4	-0.7	-8	0	1.3%
Cc1ccc(-n2nnnc2/C=C\Nc2cc(C)on2)cc1	-15	-2.0	-0.1	-4	-1	1.7%
Nc1ccc(Br)c[n+]1Cc1cccc2cccnc12	9	-5.7	-0.2	-8	-3	-0.2%
Cn1nnnc1SCC(=O)Nc1ccc(S(=O)(=O)N2CCOCC2)cc1	1	-0.1	·	1	3	1.9%
CCCS(=O)(=O)c1nc(S(=O)(=O)c2ccc(C)cc2)c(NCCCN2CCOCC2)s1	-2	-5.1	-0.4	-26	-3	-1.4%
Cc1ccc(-c2cc(-c3nnc(SCC(=O)N(C)CCC#N)n3N)c3ccccc3n2)cc1	-2	-3.1	-0.9	-2	3	2.6%
CCN(CC(=O)NC(C)C)C(=O)[C@@H](NC(=O)c1ccco1)C(C)C	7	-3.8	0.0	-6	-13	-1.4%
Cc1nc(-c2ccccc2)nc2[nH]c(=O)n(-c3ccccc3)c(=O)c12	-18	-3.2	-0.6	-7	?	-0.6%[38.3 µM]
Nc1nn2c(-c3ccccc3)cc(=O)[nH]c2c1N=Nc1ccc(O)cc1	?	-4.4	1.6	-3	?	-0.1%
COc1cccc(CN2CCC(Oc3ccc(C(=O)NCc4ccccn4)cc3)CC2)c1O	-6	-1.3	0.6	-12	·	2.3%
COCCn1nnnc1CN(CCCN1CCOCC1)Cc1cc2c(C)ccc(C)c2[nH]c1=O	-4	-5.1	-1.2	-14	-2	-2.2%
CC(C)(O)C(=O)NN(Cc1ccccc1)c1ccccc1	15	0.2	1.7	-2	9	1.5%
COc1ccc2cc(C(=O)N3CCN(c4ccccc4OC)CC3)[nH]c2c1	-8	6.6	2.6	-8	-13	-1.3%
CS(=O)(=O)c1nc2c(cc1C#N)CCCC2	7	-2.1	-0.1	-13	3	1.3%

Entries of single compounds from above.
COc1ccc(C(=O)OCc2nc(N)nc(Nc3ccccc3C)n2)cc1OC across the screens: Six1-Eya2 inh: -5; D2 agonist: -0.4; TRPML1 ag: 0.1; D2 potentiator: 0; CtBP-E1A inh: -15; PINK1 modulator: 6.1%
O=C(/C=C/c1ccco1)OCc1nnc(-c2ccccc2)o1 across the screens: Six1-Eya2 inh: 0; D2 agonist: -4.1; TRPML1 ag: 1.3; D2 potentiator: -4; CtBP-E1A inh: 2; PINK1 modulator: -0.3%

Limited to Six1-Eya2 inh (two entries from above):
structure | Six1-Eya2 inh
COc1cccc(CN2CCC(Oc3ccc(C(=O)NCc4ccccn4)cc3)CC2)c1O | -6
COCCn1nnnc1CN(CCCN1CCOCC1)Cc1cc2c(C)ccc(C)c2[nH]c1=O | -4

Hits appear at their usual frequency (roughly 1.3% active in at least one column).
